Screening data (PubChem)
WNV protease inh – WNV NS2B-NS3 proteinase inhibition. P06935. WNV NS2B-NS3 protease, fluorogenic substrate Ex360/Em465; stronger effect = lower value. z-score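 (tested at a level between 10 and 100 µM)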. hit rate 0.18% among 65,000. AID 577;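 active means z-score at -3 or under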;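 further: score is relative to mean and spread of the compound wells of a plate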
Target sequence (P06935 1371-1501 limits assumed): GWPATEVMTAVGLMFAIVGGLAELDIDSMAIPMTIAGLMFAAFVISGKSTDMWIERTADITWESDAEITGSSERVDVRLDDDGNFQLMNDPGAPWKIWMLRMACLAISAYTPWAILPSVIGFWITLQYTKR
Target sequence (P06935 1502-1679 limits assumed): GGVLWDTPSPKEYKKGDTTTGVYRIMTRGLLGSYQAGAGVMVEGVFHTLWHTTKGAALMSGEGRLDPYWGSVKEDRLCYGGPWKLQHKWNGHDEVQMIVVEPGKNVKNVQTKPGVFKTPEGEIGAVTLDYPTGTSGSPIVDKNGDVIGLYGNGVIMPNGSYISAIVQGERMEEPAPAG
Hsc70 – Hsc70 inhibitors, probe displacement, primary screen, biochemical, fluorescence polarization (AID 568). Hsc70 fluorescence polarization, probe displacement; higher % means a stronger effect; strong numbers were not always called active. displacement, % at 20 µM; hits with a dose series show IC50 in µM. 83,000 tested, under 10 active;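 active means displacement above 50% without optical interference and an IC50 on retest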;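 further: ATPase domain with a fluorescein-tagged ATP probe; 0% = vehicle and 100% = excess ADP; read after one hour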
MT1-MMP reporter – MT1-MMP gene expression reporter suppression – cell-based, luciferase reporter, luminescence (AID 618). MT1-MMP promoter luciferase reporter cells, luminescence. calls from a first round at 10 µM; hits with a dose series show EC50 in µM. hit rate 0.62% among 87,000;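 active means over half of the reporter light lost at 10 µM or EC50 under 50 µM; inactive means the rest and hits that failed the dose series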;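 further: actives suppress MT1-MMP promoter-driven transcription so potencies describe inhibitors; HT1080 fibrosarcoma cells; overnight exposure; toxic or luciferase-blocking compounds were not removed from the actives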
Numbers without * were called inactive; i = inactive; . = no result given. A portion of the library; the hit share may differ from the screen's.

Order of results – WNV protease inh, Hsc70, MT1-MMP reporter
> O=C(NCc1cccnc1)c1ccc(COc2ccc3c(c2)CCC3)o1
    1.3, -3.3%, i
> CCN1CCN(S(=O)(=O)c2cc(OC)c(Cl)cc2OC)CC1
    ., 5.5%, i
> CC/C(=C\C(=O)c1ccncc1)Nc1ccc(Br)cc1
    ., 4.1%, i
> Cc1ccccc1OCC(=O)N(Cc1cccs1)C1CCS(=O)(=O)C1 (stereo unspecified)
    0.43, -2.9%, i
> CCOc1cc(C(=O)Nc2ccc(N3CCN(S(C)(=O)=O)CC3)cc2)cc(OCC)c1OCC
    -0.27, 3.1%, i
> CC1CCCN(C(=O)c2ccc(S(=O)(=O)N3CCC(c4nc5ccccc5s4)CC3)cc2)C1 (stereo unspecified)
    ., 7.9%, i
> CC(C)n1cc(/C=C2/NC(=O)N(c3cccc(Cl)c3)C2=O)c2ccccc21
    ., -3.2%, i
> CC(C)C(C(=O)NC1CCCCC1)N(CC1CCCO1)C(=O)CNS(=O)(=O)c1ccc(F)cc1 (stereo unspecified)
    -0.83, -1.9%, i
> CC(C)CN1C(=O)c2ccc(C(=O)Nc3ccncc3)cc2C1=O
    -1.5, 8.8%, i
> c1coc(-c2nc(-c3ccco3)c(-c3ccco3)nc2-c2ccco2)c1
    1.8, -5.3%, i
> CC(C)C(=O)N(Cc1cc(=O)[nH]c2ccccc12)c1ccccc1
    0.21, 124%, i
> CC(=O)N(Cc1cc(=O)[nH]c2ccccc12)c1ccc(C)cc1
    -0.83, 3.3%, i
> CCn1c(SCC(=O)O)nnc1-c1ccccc1
    0.15, 5.2%, i
> CCCn1c2c(c(O)c(C(=O)Nc3ccccn3)c1=O)CCCC2
    -0.11, 1.5%, i
> CN(Cc1ccccc1)C(=O)[C@H]1CCC(=O)N1Cc1ccco1
    ., 2.2%, i
> COC(=O)Cc1c[nH]c2cccc(OCC(O)CN(Cc3ccccc3)C(C)C)c12 (stereo unspecified)
    ., -4.6%, i
> COc1ccccc1-c1nnc2sc(COc3ccccc3)nn12
    -1.1, -7.7%, i
> O=C(O)c1[nH]c2ccc(Cl)cc2c1CC(=O)N1CCN(c2ccccc2)CC1
    0.84, 3.6%, i
> COc1ccc(N2CCN(S(=O)(=O)c3ccc(OC)cc3)CC2)cc1
    -1.1, -7.0%, i
> Cc1ccccc1-n1c(C)cc(/C=N/Nc2ccc([N+](=O)[O-])cn2)c1C
    ., -1.3%, i
> CC(C)NC(=O)CSc1nnc(-c2ccc(C(C)(C)C)cc2)n1C
    -0.37, -2.1%, i
> COc1ccccc1C(=O)Oc1ccc(C(C)C)cc1
    ., 3.0%, i
> CCOC(=O)C1=C(Nc2cccc(Cl)c2)OCC1=O
    1.5, -1.6%, i
> CCCc1[nH]nc2c1C(Cc1ccccc1)C(C#N)=C(N)O2 (stereo unspecified)
    -1.6, 5.0%, i
> CC(=O)c1c(C)[nH]c(C(=O)OCC(=O)NCCc2ccc(F)cc2)c1C
    0.04, 2.2%, i
> CC1(C)CC(=O)C2=C(C1)OC(N)=C(C#N)C2CCc1ccccc1 (stereo unspecified)
    -0.98, -1.2%, i
> COc1ccc(CCNC(=O)NC2CCCCC2)cc1OC
    0.61, -3.0%, i
> C=CCOc1nc(N2CCCC2)nc(N2CCCC2)n1
    -0.74, -3.2%, i
> CN1/C(=C\C(=O)c2oc3ccccc3c2N)C(C)(C)c2ccccc21
    ., -0.2%, i
> COc1cccc(C(=O)CSc2nnc(-c3cccs3)o2)c1
    -0.89, 0.2%, i
> CCOc1ccc(OCC)c(NS(=O)(=O)c2cccc3nsnc23)c1
    -0.75, -3.5%, i
> O=C(CC1Nc2ccccc2NC1=O)Nc1ccccc1 (stereo unspecified)
    0.42, -4.2%, i
> CCn1c2ccccc2c2cc(C3C(C#N)=C(N)OC4=C3C(=O)CC(C)(C)C4)ccc21 (stereo unspecified)
    1.4, -7.4%, i
> Cc1ccc(C)c(CSc2nnc([C@@H](N)C(C)C)o2)c1
    0.79, -2.1%, i
> CCC(=O)c1ccc(OCCn2cncn2)cc1
    0.6, -1.3%, i
> COC(=O)c1c(NC(=O)c2ccc(Br)o2)sc(C)c1C
    -0.24, -4.1%, i
> COc1ccc(CNCCNC(=O)c2ccco2)c(OC)c1OC
    2.2, 2.4%, i
> CC(C)CC(=O)Nc1ccc2oc(-c3cccnc3)nc2c1
    0.45, 3.0%, i
> Cc1c(NC(=O)c2ccccc2NS(=O)(=O)c2ccc(F)cc2)c(=O)n(-c2ccccc2)n1C
    -0.63, -3.3%, i
> CCOc1ccc(/C(O)=C2/C(=O)C(=O)N(CCN(C)C)C2c2ccccc2)cc1Cl (stereo unspecified)
    -0.25, -0.1%, i
> c1ccc(Cc2nn3c(C4COc5ccccc5O4)nnc3s2)cc1 (stereo unspecified)
    -1.8, 1.6%, i
> c1ccc(NC(=NCc2ccco2)c2ccccc2)cc1
    -0.35, 0.8%, i
> CCCn1c(=N)n(CC(=O)O)c2ccccc21
    ., -1.2%, i
> COc1ccc(NC(=O)CSc2nc3ncccc3[nH]2)cc1OC
    ., -0.1%, i
> COc1ccc2c(c1)OC1(C)CC2C(C(=O)c2ccccc2OC)C(=O)N1 (stereo unspecified)
    0.31, 4.1%, i
> CSc1oc(-c2ccco2)nc1S(=O)(=O)c1ccc(F)cc1
    -0.21, 4.1%, i
> CCOC(=O)Cc1nnc(Nc2ccc(C)cc2)c2ccccc12
    ., -0.5%, i
> CSC1=C(C#N)C(c2cccs2)CC(=O)N1C (stereo unspecified)
    0.08, -0.1%, i
> Cc1ccc(OC(=S)Nc2ccc(F)cc2)cc1
    ., 1.7%, i
> COCCCn1c(CCC(=O)O)ccc1-c1ccc(F)cc1
    0.03, -8.7%, i
> COc1cc(OC)cc(C(=O)NC2=NCCS2)c1
    ., -1.3%, i
> CC(=O)N1CCN(c2ccccc2NC(=O)c2cc(Br)ccc2Cl)CC1
    -0.07, -0.7%, i
> CCOC(=O)Cc1csc(SCC(=O)Nc2cc(Cl)ccc2Oc2ccccc2)n1
    ., -2.2%, i
> Cn1c(C(=O)N2CCN(c3ccc(F)cc3)CC2)cc2c(=O)n(C)c3ccccc3c21
    0.23, 1.9%, i
> Cc1cc(C(=O)CN2C(=O)c3ccccc3C2=O)c(C)n1C1CC1
    0.31, -4.4%, i
> CCOC(=O)c1ncn2c1C(=O)OC2(C)C
    -0.9, -1.8%, i
> COCCCNC(c1ccccc1)c1ccncc1 (stereo unspecified)
    -1, 9.2%, i
> O=C(CSc1nnc(CNc2ccc(Cl)cc2)n1Cc1ccccc1)NCc1ccco1
    0.07, -2.1%, i
> CCCCOc1ccc(Cl)cc1CSc1nncn1N
    1.6, -4.8%, i
> CCCCCN=C(C)c1c(O)c2ccccc2oc1=O
    0.39, -6.4%, i

Complete entries, quoted from the list. Screens in order: WNV protease inh	Hsc70	MT1-MMP reporter
CCOc1ccc(OCC)c(NS(=O)(=O)c2cccc3nsnc23)c1 as listed: -0.75	-3.5%	i
COC(=O)c1c(NC(=O)c2ccc(Br)o2)sc(C)c1C as listed: -0.24	-4.1%	i

Of the compounds above, three contain bromine.
Order of results – WNV protease inh, Hsc70, MT1-MMP reporter
> CC/C(=C\C(=O)c1ccncc1)Nc1ccc(Br)cc1
    ., 4.1%, i
> COC(=O)c1c(NC(=O)c2ccc(Br)o2)sc(C)c1C
    -0.24, -4.1%, i
> CC(=O)N1CCN(c2ccccc2NC(=O)c2cc(Br)ccc2Cl)CC1
    -0.07, -0.7%, i

(cont.)
Order of results – WNV protease inh, Hsc70, MT1-MMP reporter
> O=C(NC1CCCCC1)c1ccccc1NC(=O)C1CC1
    ., 1.7%, i
> COc1ccc(-c2nnc3sc(CCN4C(=O)c5ccccc5C4=O)nn23)cc1
    -0.39, -0.6%, i
> COc1ccc(-n2cnc3cc(NC(=O)c4ccco4)ccc32)cc1
    ., 1.6%, i
> C/C(CC(O)(/C=N/O)c1ccccc1)=N\O (stereo unspecified)
    0.79, 1.9%, i
> CCOC(=O)C(C#N)c1ccccn1 (stereo unspecified)
    0.56, 0.8%, i
> COc1cc(C)c(N(C(C)=O)c2ccccc2)c(C)c1
    0.06, -0.5%, i
> COc1ccc(CN=C(C)c2c(C(F)(F)F)[nH]n(-c3nc4ccccc4s3)c2=O)cc1
    ., -0.2%, i
> CCCCOC(=O)c1ccc(NC(=O)CSCc2n[nH]c(=O)[nH]2)cc1
    0.27, -1.0%, i
> Cc1nn(CC(=O)NCCc2ccccc2)c(=O)c2ccccc12
    1.7, 1.3%, i
> CCCCC(=O)NCCc1ccc(S(N)(=O)=O)cc1
    0.12, 3.0%, i
> Brc1ccc(-c2nnc(-c3cccnc3)c3conc23)cc1
    ., -3.7%, i
> Nc1nc(-c2ccc(Cl)cc2)cc(C(F)(F)F)n1
    -0.94, -0.4%, i
> COc1ccc(NC(=O)C(C)N(c2ccc(C)cc2)S(C)(=O)=O)c(OC)c1 (stereo unspecified)
    0.25, 4.8%, i
> CCOc1ccccc1CNC(=O)c1cc2occc2n1C
    -1.1, -3.2%, i
> Cc1cc(NC(=O)COc2ccccc2)n(-c2ccccc2)n1
    0.3, 11%, i
> O=C(c1ccccc1)N(Cc1ccco1)C1CCS(=O)(=O)C1 (stereo unspecified)
    ., 6.4%, i
> COc1cc(C(=O)Nc2cccc(-c3nc4cc(C)ccc4o3)c2)cc(OC)c1OC
    -1.5, -4.3%, i
> CN(C)S(=O)(=O)c1cccc(C(=O)Nc2ccc(Cl)cn2)c1
    -0.92, -5.2%, i
> CCCC(=O)NCc1ccc2c(c1)cc(C)n2C
    -0.05, 1.0%, i
> CCN(Cc1ccccc1)S(=O)(=O)c1ccc2oc(C(=O)O)c(C)c2c1
    -1.1, -1.2%, i
> Cc1nc2ccccc2c(=O)n1NCc1cc(Br)cs1
    -0.47, -0.1%, i
> COc1ccc(C)cc1-n1nnnc1SCC(=O)Nc1cc(C)on1
    -1.3, 0.1%, i
> O=C(CSc1nnnn1-c1cccc2c1CCCC2)N1CCOCC1
    -0.39, 3.1%, i
> C=CCN1C(=Nc2ccccc2)SC/C1=C\C(=O)OC
    -0.69, 1.6%, i
> CCOC(=O)CCCCC(=O)NC(CO)C(=O)NC (stereo unspecified)
    0.39, 1.7%, i
> COc1cc(-c2nc(-c3ccncc3)no2)cc(OC)c1OC
    -0.54, -5.7%, i
> Cc1ccc(O)c(CNc2ccccn2)c1
    1, 0.6%, i
> CCC1S/C(=N\S(=O)(=O)c2cccs2)N(C2CCCCC2)C1=O (stereo unspecified)
    ., 2.6%, i
> Cn1c(O)c(C2=c3ccccc3=NC2=O)sc1=Nc1ccc(Cl)cc1
    ., -5.3%, i
> Cc1c(NC(=O)C2Cc3ccccc3CN2C(=O)c2ccco2)c(=O)n(-c2ccccc2)n1C (stereo unspecified)
    0.73, 1.3%, i
> CC(C)CCNC(=O)Cn1c(NCCC(C)C)nc2c1c(=O)n(C)c(=O)n2C
    1.3, 0.2%, i
> CC(C)OCC1CC(CC(=O)NC(=S)Nc2cccc([N+](=O)[O-])c2)C(=O)O1 (stereo unspecified)
    ., 0.1%, i
> COc1ccc(-n2c(C)nc3c(cnn3-c3ccc(Cl)cc3)c2=O)cc1
    -0.33, 8.2%, i
> CN(C)S(=O)(=O)N1CCN(C(=O)c2cccc(Br)c2)CC1
    ., 0.6%, i
> O=C(NCc1ccccc1)C(=O)NCC1COc2ccccc2O1 (stereo unspecified)
    ., -3.7%, i
> COc1ccccc1Nc1nc(N)nc(CN2CCN(Cc3ccccc3)CC2)n1
    0.11, 0.2%, i
> O=C(Nc1ccccc1C(F)(F)F)c1cc(-c2ccc(O)cc2)on1
    0.21, 1.9%, i
> CCn1c(CNc2ccccc2Cl)nnc1SCCN1CCCCC1
    -1.2, -8.3%, i
> COc1ccc(CCNC(=O)c2cnn3ccccc23)c(OC)c1OC
    -1, 5.0%, i
> Cc1ccc(S(=O)(=O)N2CCN(c3ncnc4c3cnn4-c3ccccc3)CC2)cc1
    0.56, -6.6%, i
> O=C(O)Cn1cc(C(=O)c2ccco2)c2ccccc21
    0.88, 1.6%, i
> CCOC(=O)c1cnn(-c2ccccc2)c1-n1cccc1
    ., -0.3%, i
> COc1cccc(CNCCSc2nnnn2C)c1OC
    ., -4.1%, i
> CC(=O)c1cccc(NC(=O)CN(C2CCCCC2)S(C)(=O)=O)c1
    0.27, 5.9%, i
> Cc1cc(C)nc(SCc2nnc(SCC(=O)Nc3ccc(Cl)c(C(F)(F)F)c3)o2)n1
    -0.47, 0.3%, i
> CC(C)c1nnc(NC(=O)CSc2ccccc2)s1
    ., 6.4%, i
> CCCCC(=O)Nc1ccc2c(c1)nc1n2CCOC1
    0.13, 1.3%, i
> O=C(O)C1CCCN1c1ncccn1 (stereo unspecified)
    -1.7, -1.2%, i
> NS(=O)(=O)c1ccc(NS(=O)(=O)/C=C/c2ccccc2)cc1
    -0.3, -8.5%, i
> O=C(CSc1ncnc2nc[nH]c12)c1ccc(Cl)cc1
    -0.55, -0.4%, i
